Screening results (PubChem BioAssay)
Tgondii IFNg = blocks Toxoplasma gondii growth in the presence of IFN-gamma; Toxoplasma gondii growth in IFN-gamma-treated host cells; active compounds read low; reference of the scale not given here; activity change, negative = inhibition, %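 (about 20 µM by stock and volumes)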; 69,000 tested, 3.8% active;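 active means below -70%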;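 further: host cells are HeLa cells infected with Toxoplasma gondii; parasite growth read as luciferase light; one replicate is shown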
Numbers without * were called inactive; & = joins results of further samples. Some of the compounds tested; rates above refer to the full screens.

SMILES	Tgondii IFNg
COc1ccc(-c2ccccc2[C@H]2[C@@H](CO)N(C(=O)NC3CCCCC3)[C@H]2C#N)cc1	-72*
Cc1ccc(-c2nc3c(s2)CN(C(=O)Nc2cccc(C)c2C)CC3)cc1	214
O=C(c1ccccc1F)N1CCc2c([nH]c3ccccc23)C1c1ccc(Cl)cc1 (stereo not given)	-18
Cc1ccc(S(=O)(=O)Nc2nnc(C(C)(C)C)s2)cc1	-31
CNC[C@@H]1Oc2ccc(NC(=O)NC3CCCCC3)cc2CC(=O)N([C@@H](C)CO)C[C@@H]1C	0
Brc1ccc2[nH]cc(-c3nnc4ccc5ccccc5n34)c2c1	-37
CCCCN(C)C(=O)c1ccc2ccc(N3CCN(CC4CC4)CC3)n2c1	20
COc1ccc(Cl)cc1-c1cccc(CNC(C)=O)c1	-17
COc1ccc2[nH]c(C(=O)N3CCC(O)(CO)CC3)c(C)c2c1	12
Cc1ccnc(C(NC(=O)CCc2c(C)nn(C)c2C)C2CC2)c1 (stereo not given)	0
CC(=O)N1CCC2(CC1)Cc1ccccc1CNC2=O	5
Cc1cccc(NC(=O)N2CCC3(CC2)CC(CC(=O)NC2CC2)c2ccccc2O3)c1 (stereo not given)	-7
CC(Cc1cccs1)NC(=O)CSCc1ccco1 (stereo not given)	-44
OCc1ccc(-c2nccn2-c2cccc(-c3ccn[nH]3)c2)o1	6
CCc1ccc(S(=O)(=O)N2CCC(c3nc(C(=O)N(C)C)c(C)o3)CC2)cc1	-52
CC(=O)c1ccc(N2CCCC(CO)(Cc3ccccc3F)C2)nc1 (stereo not given)	10
O=C(NC1CC(=O)N(c2ccccc2F)C1)c1ccc(Cn2cnnn2)cc1 (stereo not given)	5
CCc1ccc(Nc2nc(C(=O)N3CCOCC3)nc3ccccc23)cc1	63
CC1(C)CC(=O)c2cnc3nc(N)nn3c2C1	-12
COc1c(F)cccc1C(=O)NC(C)c1cnn(C)c1 (stereo not given)	-33
CC(C)N1CCC2(CC1)CN(C(=O)C1CC1)Cc1ccccc12	-49
Cc1cnc(CNC(=O)c2cccc(C3CCNC3)c2)cn1 (stereo not given)	45
O=C1c2ccc3c4c(ccc(c24)C(=O)N1c1ccccn1)C(=O)N(c1ccccn1)C3=O	-90*
COc1ccc2c(c1)CCc1c-2nc2ccccc2c1N1CCOCC1	-98*
Cc1cc(-n2c(=S)[nH]c3sc(C)c(C)c3c2=O)n(-c2ccccc2)n1	-25
Carrying on:
SMILES	Tgondii IFNg
CCn1nnc2c1CCN(S(=O)(=O)c1cn(C)cn1)C2COC (stereo not given)	11
c1ccc(-c2noc(C3CCN(Cc4cc5n(n4)CCNC5)CC3)n2)cc1	-8
O=C1CCC2(CCC(NC3CCOC3)CC2)N1Cc1cccc(F)c1 (stereo not given)	-5
COc1ccc(C(N)c2ccncc2)cc1 (stereo not given)	28
CN1CC[C@@]2(CN(Cc3nccs3)C[C@H]2c2ccccc2)C1=O	161
COc1ccc(C2CCCN2C(=O)C2CCCN(c3ccccn3)C2)cc1OC (stereo not given)	-1
Cc1cccc(NC(=O)Cn2ncc3c(N4CCC(C)CC4)ncnc32)c1	132
COc1ccccc1-c1cn(CC[C@H]2CC[C@H](NC(=O)C3CCCCC3)[C@@H](CO)O2)nn1	-43
Cc1cccc(NC(=O)N2CCC3(CC2)Nc2ccccc2-n2cccc23)c1C	354
COc1cccc(C(=O)Nc2ccc3c(c2)C(=O)N(C)C[C@@H](OC)[C@H](C)CN(C(=O)C2CC2)[C@H](C)CO3)c1	-19
CSc1nccc(NCC(O)c2nccn2C)n1 (stereo not given)	18
CC1CCCCN1CCCNC(=O)c1nc(-c2ccc(Cl)cc2)n2c1CCCCC2 (stereo not given)	-37
CCCN(C)C[C@@H]1OCCCC[C@H](C)Oc2ccc(NC(=O)CCCN(C)C)cc2C(=O)N([C@H](C)CO)C[C@@H]1C	11
O=C(Cn1nc2oc3ccccc3n2c1=O)N1CCCCC1	52
CN(Cc1ncc[nH]1)c1ccc(C(=O)N2CCC(CCc3ccccc3)CC2)cn1	-36
CCc1ccc(CN2CCC(N3CCCC(C(=O)N4CCCC4)C3)CC2)o1 (stereo not given)	-5
Cc1cc(Nc2cnccn2)nc(C2CCCN(CCO)C2)n1 (stereo not given)	13
Cc1ccc(Nc2nc(C(=O)Nc3cccc(Br)c3)nc3ccccc23)cc1	39
CSC1=NCCCN1C(=O)c1nn(-c2ccccc2)nc1C	56
COCC(=O)N(C[C@H]1N[C@H](CO)[C@@H]1c1ccc(-c2cncnc2)cc1)C(C)C	9
O=S(=O)(NCc1ccccc1)N1CCCC1c1ccccn1 (stereo not given)	-4
CCOC(=O)c1cc(C2CC2)nc2c1c(=O)n(CC(=O)c1c(C)n(C)c3ccccc13)c(=O)n2C	8
CCOCCCNC(=O)Cn1ncc2c(N3CCN(c4ccccc4)CC3)ncnc21	67
O=C(Nc1ccccc1)N1CCC2(CN(Cc3ccc(C(F)(F)F)cc3)C2)C1	-24
COc1ccc(-c2nc(CNS(=O)(=O)c3ccc(OC)cc3)c(C)o2)cc1	0

Arranged by molar mass (low to high): some entries from above.
SMILES	Tgondii IFNg
COc1ccc(C(N)c2ccncc2)cc1 (stereo not given)	28
CSc1nccc(NCC(O)c2nccn2C)n1 (stereo not given)	18
O=C(Cn1nc2oc3ccccc3n2c1=O)N1CCCCC1	52
Cc1cc(Nc2cnccn2)nc(C2CCCN(CCO)C2)n1 (stereo not given)	13
CSC1=NCCCN1C(=O)c1nn(-c2ccccc2)nc1C	56
O=S(=O)(NCc1ccccc1)N1CCCC1c1ccccn1 (stereo not given)	-4
CCn1nnc2c1CCN(S(=O)(=O)c1cn(C)cn1)C2COC (stereo not given)	11
c1ccc(-c2noc(C3CCN(Cc4cc5n(n4)CCNC5)CC3)n2)cc1	-8
COCC(=O)N(C[C@H]1N[C@H](CO)[C@@H]1c1ccc(-c2cncnc2)cc1)C(C)C	9
COc1ccc(-c2nc(CNS(=O)(=O)c3ccc(OC)cc3)c(C)o2)cc1	0
O=C(Nc1ccccc1)N1CCC2(CN(Cc3ccc(C(F)(F)F)cc3)C2)C1	-24
COc1ccc(C2CCCN2C(=O)C2CCCN(c3ccccn3)C2)cc1OC (stereo not given)	-1
CN(Cc1ncc[nH]1)c1ccc(C(=O)N2CCC(CCc3ccccc3)CC2)cn1	-36
CCOCCCNC(=O)Cn1ncc2c(N3CCN(c4ccccc4)CC3)ncnc21	67
CC1CCCCN1CCCNC(=O)c1nc(-c2ccc(Cl)cc2)n2c1CCCCC2 (stereo not given)	-37
Cc1ccc(Nc2nc(C(=O)Nc3cccc(Br)c3)nc3ccccc23)cc1	39
COc1ccccc1-c1cn(CC[C@H]2CC[C@H](NC(=O)C3CCCCC3)[C@@H](CO)O2)nn1	-43
CCOC(=O)c1cc(C2CC2)nc2c1c(=O)n(CC(=O)c1c(C)n(C)c3ccccc13)c(=O)n2C	8

(more compounds)
SMILES	Tgondii IFNg
Cc1nn(C)c(C)c1CN(C(=O)Cc1[nH]nc2ccccc12)C1CC1	4
CCOc1ccccc1NC(=O)N1CCC2(CC1)NC(=O)c1ccccc1N2CC	57
CCN(CC)C(=O)c1cc(=O)n(CC(=O)Nc2ccc(Br)cc2F)c2ccccc12	13
Cc1oc(-c2cccc(Cl)c2)nc1CN1CCN(C(=O)Nc2ccc(Cl)cc2)CC1	-7
CCOC(=O)c1cccc(NC(=O)Nc2ccc(-c3nc(-c4ccc(C)cc4C)co3)cc2)c1	13
S=C(NCCCN1CCOCC1)N1CCN(c2ccccc2)CC1	27
CO[C@@H]1CN(C)C(=O)c2cc(NC(=O)C3CCCCC3)ccc2OC[C@H](C)N(Cc2cccnc2)C[C@H]1C	27
COc1cccc(S(=O)(=O)N[C@H]2CC[C@@H](CC(=O)NC3Cc4ccccc4C3)O[C@@H]2CO)c1	19
CCc1nccn1CC(=O)N1CCCC(c2[nH]ncc2-c2ccc(C)cc2)C1 (stereo not given)	-2
COc1ccc(CCn2nc(C(=O)NC3CC3)c3c2CCN(C(=O)c2ccc(F)cc2Cl)C3)cc1	-5
C[C@H](NC(=O)C[C@H]1CC[C@@H]2[C@@H](COc3ccc(NS(=O)(=O)c4ccc(Cl)cc4)cc3C(=O)N2C)O1)c1ccccc1	-69
Cc1cc(N2C[C@@H]3[C@H](C2)[C@H]2CC[C@@H]3O2)nc(-c2ccccc2)n1	-6
Cc1nc(C)c(CC(=O)Nc2cccc(CCc3nc4ccccc4[nH]3)c2)s1	-7
CNC[C@@H]1Oc2ccc(NC(=O)CCC(F)(F)F)cc2C(=O)N([C@H](C)CO)C[C@H]1C	-15
COc1ccccc1CC(=O)NCc1ccc(-c2cccs2)cc1	-21
CSc1ccc(C2c3[nH]c4ccccc4c3CCN2C(=O)C2CC2)cc1 (stereo not given)	74
CCN1c2ccc(C)cc2C(=O)NC12CCN(C(=O)c1ccc(Cl)cc1)CC2	16
O=C(O)C1C2C=CC(C2)C1C(=O)Nc1cccc2cccnc12 (stereo not given)	10
Cc1cc(C)cc(NC(=S)Nc2ccc(Oc3ccc(OC(F)(F)F)cc3)cc2)c1	-106*
CC1CCCCN1C(=O)c1ccn(-c2ccc3ccc(-c4ccncc4)cn23)n1 (stereo not given)	-1
CC(C)c1nccn1C(C)Cn1cncn1 (stereo not given)	5
Cc1ncc(C(C)C)c(N2CCN(Cc3c(C)nn(C)c3Cl)CC2)n1	-4
CCn1cc(S(=O)(=O)N(CCCOC)C2CCOc3ccccc32)cn1 (stereo not given)	-5
C[C@H]1CN([C@@H](C)CO)S(=O)(=O)c2ccc(C#CC(C)(C)O)cc2O[C@@H]1CN(C)Cc1ccc(F)cc1	-2
CN1C[C@@H](N)C[C@H]1C(=O)NCCCn1ccnc1	-49
Next records follow.
SMILES	Tgondii IFNg
Cc1cnccc1NCCNc1nc(-c2cccnc2)nc2c1cnn2C	3
CCCCC(CC)CNC(=O)CC1Nc2c3ccccc3nc(=S)n2C1=O (stereo not given)	6
Cc1cc2c(cc1-c1nccn1CCc1nc(-c3cccnc3)no1)OCO2	-22
CC(C(=O)O)n1c(C2CCC2)n[nH]c1=O (stereo not given)	-1
CNC(=O)[C@@H]1CC2CN(S(=O)(=O)c3cccc(C)c3)CC2N1C (stereo not given in full)	-6
CO[C@H](CN(C)C(=O)C1CCOCC1)[C@@H](C)CN([C@@H](C)CO)S(=O)(=O)c1ccccc1	-47
COCCN(Cc1cccs1)C(=O)c1ccc(F)c(C)c1	4
O=C(CO)N1CC2CC1C[C@@H]2Oc1cccnc1 (stereo not given in full)	62
CCN1CC(n2cnc(-c3ccccc3)c2-c2cnn3cccnc23)CC1=O (stereo not given)	2
Cc1c(C(=O)N(C)CC2(C)CCN(C)C2)cnn1-c1ccccn1 (stereo not given)	-1
COc1cc(OC)cc(-c2nnc(SCc3nnc(C)o3)o2)c1	22
O=C(CSCC(=O)c1ccc(Br)cc1)c1ccc(Br)cc1	48
CCOc1ccnc(N2CCN(Cc3ncccc3C)CC2)n1	-10
CN(C)CC(=O)N1CCN(c2ccc3ccc(C(=O)NCC4CC4)cn23)CC1	14
Cc1nc(-c2cccc(-n3ccnc3C3CCOC(C)(C)C3)c2)n[nH]1 (stereo not given)	-9
O=C(NCC1(c2cccc(F)c2)CCOCC1)c1ccc(Cn2cnnn2)cc1	5
CN(C)CCNC(=O)C1Cn2ccnc2C2(CCN(Cc3nccs3)CC2)O1 (stereo not given)	2
O=C(c1ccc(N2CCCC2)cc1)N1CCCC(O)(CO)CC1 (stereo not given)	14
CCC(C)N(Cc1ccccc1F)C(=O)c1cc(NC(C)=O)cc(NC(C)=O)c1 (stereo not given)	2
Fc1cnc(N2CCOCC3(CCN(c4ccccn4)C3)C2)nc1 (stereo not given)	-3
O=C1C[C@H]2CC[C@@H](CN1)N2C(=O)c1ccccc1N1CCC(=O)NC1=O	-1
Cc1cc(C)cc(NC(=O)C(=O)NCCc2sc(-c3ccccc3)nc2C)c1	-12
CS(=O)(=O)N1C[C@@H]2OCC[C@@H]2[C@H](C(=O)NCc2cccnc2)C1	16
N#Cc1cc(I)c(O)c([N+](=O)[O-])c1	10
COc1cccc(NC(=O)c2ncn3c2CN(CC2CC2)S(=O)(=O)c2ccccc2-3)c1	-47
The list goes on:
SMILES	Tgondii IFNg
Cc1onc(-c2ccccc2)c1C(=O)N[C@@H]1C(=O)N2[C@@H]1SC(C)(C)[C@@H]2C(=O)O	15&19
COc1ccc2oc(=O)c(-c3csc(-c4ccc(N(C)C)cc4)n3)cc2c1	34
Cc1c(C(=O)O)nnn1-c1ccccc1F	16
CCS(=O)(=O)N1CCCC(Cc2cc(-c3ccc(C)cc3)no2)(C(=O)N(C)C)C1 (stereo not given)	15
Cc1cccc(COC2CC3CN(Cc4ccc(C)s4)CCN3C2)n1 (stereo not given)	-1
Cc1ccc(S(=O)(=O)N2C[C@@H](O)COC[C@@H]3O[C@@H](CC(=O)NCc4ccc5c(c4)OCO5)CC[C@H]32)cc1	-14
O=C(Cn1c(=O)cc(C(=O)N2CCCCC2)c2ccccc21)Nc1ccccc1Cl	-1
CCOc1ccccc1NC(=O)Cn1ncc2c(N3CCN(c4ccccn4)CC3)ncnc21	-21
Cc1ccc(-c2ccc(F)cc2O)c2cccnc12	-66
CN(C)CCCNC(=O)C[C@@H]1CC[C@@H]2[C@H](COC[C@H](O)CN2CC2CC2)O1	4
Cc1ccc(C2(O)CCN(c3ccc(CS(C)(=O)=O)cn3)CC2)nc1	9
CCCCC(=O)NCCc1c(Cc2ccccc2)[nH]c2ccccc12	-31
Cc1ccc2c(c1)C(=O)NC1(CCN(C(=O)Nc3ccc(C)c(C)c3)CC1)N2C	-44
Cc1ccc(N2CCN(C(=O)CCN3CCCCO3)CC2)c(C)c1	36
CSc1cccc(NC(=O)Nc2ccc(-c3nc(-c4ccc(C)cc4)co3)cc2)c1	35
COCC1=NC2(CCN(C(=O)NCCc3ccccc3F)CC2)C(=O)N1	-16
